Source: PubChem
Rce1 inhib: blocks yeast Ras-converting enzyme. Q03530. yeast membranes, quenched prenylated peptide cleavage fluorescence. calls only. 290,000 tested, 0.27% active;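 active means fall in fluorescence gain of 50% or more versus controls, with final raw signal at or below 3038400; inconclusive means same 50% fall but final raw signal above 3038400; inactive means fall in fluorescence gain under 50%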;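 further: plate controls were neutral control wells for no effect and wells lacking membranes for full effect; tested at 10 µM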
Target sequence (Q03530 whole entry, looked up): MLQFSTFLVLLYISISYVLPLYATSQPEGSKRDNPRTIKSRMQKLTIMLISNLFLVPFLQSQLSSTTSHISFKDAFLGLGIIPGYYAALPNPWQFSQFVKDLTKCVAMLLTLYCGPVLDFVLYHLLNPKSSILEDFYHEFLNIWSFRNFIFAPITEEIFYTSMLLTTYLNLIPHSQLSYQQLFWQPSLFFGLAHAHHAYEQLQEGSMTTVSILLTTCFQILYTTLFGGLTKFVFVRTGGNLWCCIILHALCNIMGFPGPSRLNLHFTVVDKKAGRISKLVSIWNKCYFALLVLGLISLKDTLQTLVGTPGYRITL
Yeast UUG start: yeast start codon fidelity modulation | S. cerevisiae UUG-firefly luciferase reporter, luminescence/redox ratio | activity score, % at 18.7 µM | 350,000 tested, 0.13% active;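 active means replicate mean at a twofold rise or more, about +100% in these data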;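 further: firefly luciferase made from a UUG start codon reports start codon fidelity; reporter light over untreated wells divided by growth signal over untreated wells; some hits fall short of that in this replicate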
eIF4H inh: inhibitors of RNA binding by human eIF4H. Q15056. eIF4H fluorescence polarization binding assay. inhibition, % at 35 µM. 290,000 tested, 0.94% active;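 active means 50% or more with normal probe brightness, or confirmed in later tests; inconclusive means above 50% with abnormal brightness, or retests that disagree; inactive means below 50% or failed in later tests; about a fifth of its hits are not listed in these tables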;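 further: calls also rest on retests at 20 µM and on dose response follow-up; 0% = protein and probe with vehicle and 100% = probe without protein; strong numbers were not always called active; many hits fall short of the cut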
Env fusion inh: HIV envelope-mediated fusion inhibition; inhibition, % at 12.3 µM; HeLa-JRFL Env/CEM21 cell fusion, luciferase; 360,000 tested, 1.1% active;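 active means mean replicate inhibition score of at least 50 and every replicate individually at or above 50; inconclusive means only one of the two criteria met; inactive means mean below 50 and not all replicates reaching 50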;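 further: 0% = plate neutral controls and 100% = maraviroc near 300 nM; one replicate is shown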
PABP polyA inh: blocks human PABP binding to poly(A) RNA; P11940; fluorescence polarization; inhibition, % at 35 µM; 290,000 tested, 1% active; AID 2014;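 active means 50% or more with normal probe brightness, or confirmed in later tests; inconclusive means above 50% with abnormal brightness, or retests that disagree; inactive means below 50% or failed in later tests; about a fifth of its hits are not listed in these tables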;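 further: calls also rest on retests at 20 µM and on dose response follow-up; controls were probe without protein and protein plus probe with vehicle; some compounds called inactive have numbers as strong as hits; many hits fall short of the cut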
Target sequence (P11940 whole entry, looked up): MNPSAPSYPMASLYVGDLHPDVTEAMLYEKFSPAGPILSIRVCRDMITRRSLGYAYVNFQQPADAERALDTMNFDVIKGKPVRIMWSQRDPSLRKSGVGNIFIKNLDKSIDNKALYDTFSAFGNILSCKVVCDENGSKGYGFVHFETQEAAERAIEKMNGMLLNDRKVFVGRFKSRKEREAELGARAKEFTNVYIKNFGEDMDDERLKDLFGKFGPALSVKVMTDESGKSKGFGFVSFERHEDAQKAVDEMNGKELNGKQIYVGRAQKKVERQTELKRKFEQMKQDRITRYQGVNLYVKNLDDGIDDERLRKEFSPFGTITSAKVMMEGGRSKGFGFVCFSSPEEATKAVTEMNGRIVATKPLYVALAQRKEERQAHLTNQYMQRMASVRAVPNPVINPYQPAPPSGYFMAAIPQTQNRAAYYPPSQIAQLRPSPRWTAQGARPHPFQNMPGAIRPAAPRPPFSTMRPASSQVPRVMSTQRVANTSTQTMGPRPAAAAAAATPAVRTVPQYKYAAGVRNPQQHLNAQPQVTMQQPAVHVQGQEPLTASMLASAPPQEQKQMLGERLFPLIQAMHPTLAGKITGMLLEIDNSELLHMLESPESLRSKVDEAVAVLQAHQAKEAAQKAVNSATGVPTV
CSC inhib: blocks cancer stem cells | AID 2717 | inhibition, % at 7.5 µM | 300,000 tested, 1.1% active | cancer stem cell-like cells viability, luminescence;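 active means mean at 75% or more and at least half the replicates too; inconclusive means mean and replicates disagree; tested in HMLE shEcad cells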;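 further: 0% = median of negative and 100% = median of positive control wells; the first replicate is given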
MT1-MMP act inh: blocks activation of human MT1-MMP; P50281; HT1080 RFP-PRO-GFP cells, GFP/RFP ratio fluorescence, overnight; percent of plate control window, DMSO zero; GFP/RFP ratio change, % at 20 µM; 360,000 tested, 0.061% active;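 active means GFP/RFP ratio change of at least 30% with cell ATP level not reduced by more than half and red fluorescence within 50% of control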; further: strong numbers were not always called active
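Test system: HT1080 cells expressing an RFP-PRO-GFP fluorescent reporter construct / Compound dosing: single-point 20 µM compound, 1% DMSO / Schedule: cells overnight before dosing, compound overnight, 37 °C, 5% CO2 / Evaluation: GFP/RFP fluorescence ratio / Control set: DMSO and RFP-L50D-GFP cell wells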
eIF4H inh retest: recorded beside eIF4H inh, whose call it bears; inhibition, %; compound at 20 µM; confirmation average;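 mean of two retest wells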
PABP polyA inh retest: second read-out of PABP polyA inh, no call of its own (marks repeat the call); inhibition, %; compound at 20 µM; confirmation repeats;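 mean of two retest wells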
MT1-MMP act inh RFP: recorded beside MT1-MMP act inh, whose call it bears; RFP signal change, %; measured here: RFP expression control read;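 0 = vehicle wells; hits needed this value within 50% of zero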
Active calls of the source: *; i = inactive; ? = inconclusive; . = not tested or not shown; & = joins results of further samples. Only part of the results is shown. The share of hits here may be higher or lower than overall.

SMILES | Rce1 inhib | Yeast UUG start | eIF4H inh | Env fusion inh | PABP polyA inh | CSC inhib | MT1-MMP act inh | MT1-MMP act inh RFP | others
COc1ccc(CN2CC(=O)N3[C@H]4c5cc(C)ccc5OC[C@@H]4[C@H](c4ccccc4)[C@]3(C)C2=O)cc1 | . | 6 | . | 6 | . | 8 | -29 | -4
Cc1ccc(S(=O)(=O)NC(=O)c2ccccc2C)cc1 | i | -17 | -5 | -20 | -11 | 3 | -1 | 2
Cc1coc2c(C)c3oc(=O)c(CCC(=O)N[C@@H](C)C(=O)N[C@@H](Cc4ccccc4)C(=O)O)c(C)c3cc12 | i | 10 | 52 | . | 22 | -4 | 8 | 5 | eIF4H inh retest=11;PABP polyA inh retest=18
COc1ccc(C(C)(O)c2nc(-c3ccccc3)cs2)cc1 (centres undefined) | . | -3 | . | 1 | . | . | -8 | -12
CCCCCc1cc(=O)oc2c(C(CCN3CCCCC3)c3ccc(OC)cc3)c(OC)cc(OC)c12 (centres undefined) | i | -6 | -7 | 16 | -9 | 97* | -1 | -6
CCCS(=O)(=O)NC(=O)C1(C)CCN(C(=O)c2cc(-c3cccs3)oc2C)C1 (centres undefined) | . | -9 | . | 6 | . | . | 3 | 0
O=c1c2ccccc2nc(-c2ccccc2Cl)n1O | i | . | -7 | -13 | -7 | -9 | 2 | 4
O=[N+]([O-])c1ccc(O)c(/C=N/n2c(-c3ccccc3)n[nH]c2=S)c1 | i | -12 | 6 | -14 | -5 | -6 | 6 | 1
COc1cc(/C=C/C(=O)OC(C)C(=O)Nc2c(C)n(C)n(-c3ccccc3)c2=O)ccc1O (centres undefined) | i | -22 | . | -5 | . | 0 | -1 | 0
CC(C)Cc1cc(C(=O)Nc2ccc(Br)cc2)no1 | i | . | -12 | -11 | 5 | 5 | 6 | -4
Cc1nn(-c2ccc(Cl)nn2)c(=O)c2ccccc12 | . | -3 | -1 | -17 | -1 | 3 | 1 | 2
NNC(=O)C(=O)Nc1ccc(O)cc1 | i | . | 3 | 4 | 0 | 4 | 2 | 7
COc1cccc(/C=C/C(=O)N2CC(C)OC(C)C2)c1OC (centres undefined) | . | -13 | -7 | 4 | 25 | -12 | 1 | 4
CCOc1ccc(Br)cc1S(=O)(=O)NC1=NCCCCC1 | . | -5 | . | 30 | . | -17 | 0 | -1
CC1(C)Nc2ccc(O)cc2-c2c1ssc2=S | i | . | 80 | . | 1.0* | -9 | 4 | 1 | eIF4H inh retest=1;PABP polyA inh retest=90*
O=C(CCCN1C(=O)c2ccccc2C1=O)NC1CCCCCC1 | i | -11 | -3 | . | 3 | -3 | 3 | 3
CCOC(=O)C1CCN(C(=O)C2CCN(S(=O)(=O)c3c(C)noc3C)CC2)CC1 | i | -10 | 0 | -12 | -7 | -6 | 0 | 0
O=C(CSc1nc(-c2cccs2)cc(C(F)(F)F)n1)Nc1cc(OCC(F)(F)F)cc([N+](=O)[O-])c1 | i | . | -5 | 8 | 0 | . | -11 | -18
O=C1CC(c2ccccc2)CC(O)=C1C=NCCCN1CCOCC1 (centres undefined) | i | -17 | -1 | 5 | -6 | -4 | 0 | 1
O=C(NCCN1CCOCC1)c1cccnc1SCc1ccccc1Cl | i | 67 | -6 | 12 | -12 | -19 | 6 | 11
Cc1nn(CC2CC2)c(=O)n1-c1ccc(F)cc1 | i | -19 | -5 | -1 | 4 | -12 | 6 | 4
CC(=O)Nc1ccc(N/C=C2/CCCC2=O)cc1 | i | -2 | -4 | 2 | 12 | 2 | 0 | 2
O=C(COC(=O)c1ccco1)NCC1CCCCC1 | . | -24 | . | -5 | . | . | -2 | 0
CN1C(=O)COc2ccc(C(=O)c3oc4ccccc4c3-c3cnc4c(c3)COc3ccccc3-4)cc21 | i | . | -5 | . | -14 | . | . | .
O=C(OCc1nc2ccccc2s1)[C@@H]1CCCN1S(=O)(=O)c1ccccc1F | i | . | -9 | . | -14 | -9 | 4 | 1
Cc1occc1C(=O)Nc1cccc(C(=O)NCc2ccccc2)c1 | i | -22 | -9 | 9 | -2 | 0 | -1 | -2
Cc1ccc(/C(O)=C/c2nc3cc(C)ccc3oc2=O)cc1 | i | -20 | 16 | 7 | 16 | 14 | 1 | 3
COc1cc2c(cc1OC)-c1nnc(-c3cccs3)n1C1(CCCC1)C2 | i | 0 | 1 | . | -4 | 36 | -4 | -4
Cc1cc(C(=O)N/N=C/c2cc(Cl)cc([N+](=O)[O-])c2O)n[nH]1 | i | . | 1 | 0 | -3 | 7 | 0 | 6
O=C(CCN1C(=O)/C(=C\c2ccccc2)SC1=S)N1CCCCC1 | i | -9 | -10 | -2 | -1 | -4 | 2 | -1
O=C(Nc1ccc(Cl)cc1)Nc1ccc(N2CCC(C(F)(F)F)CC2)nc1 | i | -8 | ? | 8 | ? | -13 | -4 | 4
CC(C)(C)C(=O)O/N=C(\N)c1ccc(Oc2cc(Cl)cc(Cl)c2)c([N+](=O)[O-])c1 | i | . | -14 | -6 | -3 | 22 | 1 | -1
CCc1nc2ccc(C(=O)N3CCN(S(=O)(=O)CC)CC3)cn2c1N(C=O)Cc1ccc(OC)cc1 | . | -16 | . | -5 | . | . | 2 | 5
O=C(CS(=O)(=O)c1ccccc1)Nc1ccc(Cl)cn1 | i | -16 | -14 | -13 | -1 | 0 | -1 | 0
CCc1ccc(-n2c(SCC(=O)N3Cc4ccccc4CC3C(=O)O)nnc2-c2ccncc2)cc1 (centres undefined) | i | -9 | 4 | -3 | 22 | -7 | -3 | 1
CCOC(=O)c1c(C)[nH]c(C(=O)COC(=O)c2ccccc2NC(=O)c2ccco2)c1C | i | 1 | -6 | -418 | -14 | -4 | -8 | -6
Cc1ccc([C@@H]2CC=C(C(=O)O)[C@H](c3ccc(Br)cc3)N2S(=O)(=O)c2ccccc2C)cc1 | . | -16 | . | -13 | . | . | 0 | -1
CC(C)N1CCN(C(=O)c2cccc(Cl)c2)CC1 | i | -35 | 3 | 1 | 11 | -2 | 0 | 3
C=C1CSc2nc(=O)c3c4c(sc3n21)CCCC4 | i | -13 | -4 | . | 1 | 8 | 3 | 0
CCCCn1c(N)c(N(CC(C)C)C(=O)c2ccc(OCc3c(C)noc3C)cc2)c(=O)[nH]c1=O | i | -11 | . | -11 | . | -11 | -3 | 3
NC(=O)c1ccc(NC(=O)COC(=O)C2(c3ccccc3F)CCCC2)cc1 | i | . | 11 | -14 | -7 | -3 | -2 | -8
COc1cccc(NC(=O)N2CCc3nc(NCc4cccc(Oc5ccccc5)c4)ncc3C2)c1 | . | -11 | . | -2 | . | . | 14 | -19
CNC(=S)N(Cc1ccco1)Cc1cc2cc3c(cc2[nH]c1=O)OCCO3 | i | . | 5 | -5 | 2 | 6 | 8 | -3
COc1ccc(OCC(=O)N2CCCC2=O)c([N+](=O)[O-])c1 | i | -5 | -2 | -4 | 3 | -1 | -4 | 4
CC1Cc2ccccc2N1C(=O)COC(=O)/C=C/c1cccc(F)c1 (centres undefined) | . | -10 | . | -4 | . | . | 4 | -1
CCC(Sc1nc2cc(OC)c(OC)cc2c(=O)n1CCc1ccc(OC)c(OC)c1)C(=O)NCCOC (centres undefined) | . | . | 4 | -12 | 4 | 1 | 16 | -6
Cc1sc2nc(CSCC(=O)NC3(C#N)CCCCC3)[nH]c(=O)c2c1C | . | -2 | . | 24 | . | 1 | -14 | -2
O=C1C=C(c2ccccc2)C[C@@H](c2ccc(Cl)cc2)C1 | . | -15 | . | 17 | . | 32 | 11 | 3
CCC(=O)Nc1c(S(=O)(=O)c2ccccc2)c2nc3ccccc3nc2n1Cc1ccccc1 | i | -6 | -10 | -17 | -10 | 3 | 9 | 0
Cc1c(/C=N/NC(=O)COc2ccccc2[N+](=O)[O-])c2ccccc2n1C | i | . | -7 | -10 | -4 | 24 | -2 | -6

(cont.)
SMILES | Rce1 inhib | Yeast UUG start | eIF4H inh | Env fusion inh | PABP polyA inh | CSC inhib | MT1-MMP act inh | MT1-MMP act inh RFP | others
COc1cc(SC)ccc1C(=O)NCCOc1c(C)cc(C)cc1C | i | -3 | 1 | . | -5 | 4 | 22 | -2
COc1cccc(-c2nc(S(=O)(=O)c3ccccc3)c(N3CCOCC3)o2)c1 | i | -6 | -3 | . | -3 | -6 | 5 | 0
Cc1cccc(N(C(=O)Cc2cccs2)C(C(=O)NC2CCCC2)c2ccncc2)c1 (centres undefined) | i | -2 | 9 | 21 | 19 | . | -6 | -1
CCOc1ccccc1OCCCOc1ccc(C)cc1Br | i | -15 | 2 | . | 1 | 2 | -4 | -1
Cc1ccc(S(=O)(=O)N(C)C[C@H]2Oc3cc(C#Cc4ccccc4)ccc3S(=O)(=O)N([C@H](C)CO)C[C@@H]2C)cc1 | . | -28&-22&-16 | . | 5 | . | . | -6 | -7
CC(=O)c1ccc(NC(=O)c2cc(CC(C)C)nc3ccccc23)cc1 | i | -14 | -3 | 58* | 0 | -3 | -2 | -8
Cc1cc(OCC(=O)NCC2CCC(C(=O)O)CC2)c2c(C)cc(=O)oc2c1 (centres undefined) | i | -9 | -10 | . | -5 | -1 | 0 | 1
CN1CCCN(S(=O)(=O)c2ccccc2)CC1 | i | -21 | -2 | -1 | 40 | -9 | -1 | 2
Clc1cnc2nc(SC/C=C/c3ccccc3)[nH]c2c1 | i | -19 | -6 | 9 | 5 | 0 | 3 | -1
CCCCCCCCNC(=S)NCCN1CCCCC1 | i | . | -5 | 4 | 20 | . | 3 | 1
Cn1cc([N+](=O)[O-])c(C(=O)Nc2nc(-c3ccc(Cl)cc3)cs2)n1 | i | -11 | -15 | . | 3 | 103* | -25 | -39
COc1ccc(N2CCN(c3nc(Nc4ccc(C)c(F)c4)nc(N4CCCC4)n3)CC2)cc1 | i | 1 | 0 | -5 | 1 | 17 | 0 | -3
O=C(Cn1cnc2c(cnn2-c2ccc(F)cc2)c1=O)OCc1ccccc1 | i | -17 | -3 | . | -4 | . | -4 | 1
O=S(=O)(c1ccccc1)N(CC1CO1)c1ccccc1 (centres undefined) | i | . | 2 | 4 | -10 | -1 | 1 | 1
